Assay outcomes deposited in PubChem by several laboratories.
HSV augment: increases HSV replication in cells | HSV replication augmentation in cells, fold increase | maximum fold increase | 220,000 tested, 0.005% active;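 active means peak rise of 1.5-fold or more in the series; inconclusive means self-fluorescent or not available for retest; tested in PC3 cells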;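 further: first round at 10 µM; read as green reporter fluorescence; hits show the peak of a series up to 25 µM; 1 = signal of infected wells without compound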
RGS16-Gao HTS: modulates binding between human RGS16 and Galphao. binding response (% of control), % at 10 µM. bead-based flow cytometry RGS16-Galphao binding, fluorescence; actives lie on both sides. 220,000 tested, 0.38% active. AID 1441;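 active means below 25% or above 175%, edge rows of some plates excepted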;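 further: Galphao activated by GDP with aluminum fluoride before binding; 100% = wells without compound and 0% = beads without RGS; some results beyond the cut were filed as inactive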
GALR2 ag: agonists of human galanin receptor 2 (GALR2). activation, %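 (tested at 5 µM)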. AID 803. O43603. GALR2-expressing cells, agonist activation read-out. 140,000 tested, 0.48% active;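 active means above mean plus 3 SD of all compounds, about 5% in these data, not always enough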;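 further: 0% = vehicle buffer wells and 100% = reference agonist at full effect; tested in CHO reporter cells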
INS promoter inh: TRM-6 insulin promoter activity inhibition; TRM-6 cells (human fetal islet line), insulin promoter-eGFP reporter, imaging; reporter expression induced with tamoxifen; inhibition, % at 2 µM; 130,000 tested, 0.9% active;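 active means inhibition above the mean plus 3 SD, with well images judged a real hit on visual review, cut at about 60% in these data, passing the limit was not always enough; inconclusive means inhibition over the cutoff but images rejected on review; inactive means inhibition not above the cutoff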
PKD1 kinase inh: PKD1 (human) kinase inhibition; Q15139; PKD1 kinase fluorescence polarization assay; inhibition, %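 (about 10 µM by stock and volumes)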; 200,000 tested, 0.056% active; AID 797;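 active means inhibition of 50% or more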;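 further: controls were vehicle for no effect and a reference inhibitor for full effect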
Target sequence (Q15139 whole entry, looked up): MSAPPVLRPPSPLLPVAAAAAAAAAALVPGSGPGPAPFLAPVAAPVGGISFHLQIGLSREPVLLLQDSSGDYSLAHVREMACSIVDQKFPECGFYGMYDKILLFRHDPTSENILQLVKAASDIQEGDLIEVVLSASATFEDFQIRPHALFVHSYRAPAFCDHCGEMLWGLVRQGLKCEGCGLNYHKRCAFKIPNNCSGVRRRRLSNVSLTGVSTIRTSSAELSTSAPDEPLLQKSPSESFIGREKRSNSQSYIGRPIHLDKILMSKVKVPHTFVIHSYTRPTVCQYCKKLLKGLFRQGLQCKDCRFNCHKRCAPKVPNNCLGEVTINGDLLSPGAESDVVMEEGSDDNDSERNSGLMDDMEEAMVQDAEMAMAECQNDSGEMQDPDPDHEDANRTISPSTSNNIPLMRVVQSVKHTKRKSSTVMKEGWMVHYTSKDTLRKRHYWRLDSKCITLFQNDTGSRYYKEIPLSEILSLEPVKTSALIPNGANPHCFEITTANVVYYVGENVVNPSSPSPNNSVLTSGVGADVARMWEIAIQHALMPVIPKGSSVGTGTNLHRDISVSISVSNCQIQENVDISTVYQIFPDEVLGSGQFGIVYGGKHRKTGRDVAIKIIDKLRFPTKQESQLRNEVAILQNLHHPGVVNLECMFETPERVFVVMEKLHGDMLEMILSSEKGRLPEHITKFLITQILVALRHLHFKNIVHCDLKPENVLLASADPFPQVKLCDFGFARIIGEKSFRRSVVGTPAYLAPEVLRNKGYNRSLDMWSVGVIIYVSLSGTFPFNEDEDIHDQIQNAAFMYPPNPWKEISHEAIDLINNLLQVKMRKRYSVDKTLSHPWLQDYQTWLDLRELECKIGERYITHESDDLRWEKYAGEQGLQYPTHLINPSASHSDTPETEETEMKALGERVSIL
INS promoter inh cell count: also measured in INS promoter inh; calls as there; normalized cell count, %; measured here: cell count, toxicity; reference of the scale not given here;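 cells exposed to compound for 48 h; stained nuclei by imaging scaled within each plate; lower means fewer cells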
HSV augment primary fold: recorded beside HSV augment, whose call it bears; fold increase; compound at 10 µM; measured here: primary screen fold increase 10 uM; tested in PC3 cells;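 GFP signal in the first replicate; 1 = infected wells without compound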
Numbers without * were called inactive; i = inactive; ? = inconclusive; / = no result given; [ ] = dose if it differs, or a comment.

Each structure is followed by: HSV augment	HSV augment primary fold	RGS16-Gao HTS	GALR2 ag	INS promoter inh	INS promoter inh cell count	PKD1 kinase inh
O=C(NCCN1CCOCC1)C1CCC(=O)N1Cc1ccc(F)cc1 (stereo unspecified)
    i	0.9	104.0	-0.6	/	/	5.0
Cc1cc(N2CCCCC2)n2ncc(-c3ccc(Cl)cc3)c2n1
    i	0.95	104.2	-1.1	/	/	-3.0
CC(C)C(NC(=O)OC(C)(C)C)C(=O)N1CCCC1C(=O)NC(Cc1ccccc1)C(N)=O (stereo unspecified)
    i	0.87	101.7	0.1	/	/	6.6
CN(C)C=Nc1nc2ccccc2nc1N1CCCC1
    i	1.1	98.6	/	5.3	70.9	2.1
Cc1cc(C)c2c(=O)[nH]n(C3CCOC(C)(C)C3)c2n1 (stereo unspecified)
    i	0.79	103.9	-3.2	/	/	9.5
Cc1cc(=O)n2[nH]c(NCc3c(F)cccc3Cl)nc2n1
    i	0.86	102.7	/	/	/	1.4
Cc1nn(-c2ccccc2)c(C)c1C(=O)OCC(=O)NCc1ccco1
    i	0.99	95.6	-2.4	-42.9	87.5	-4.9
COc1ccc(-c2ccnc3nc(N4CCOCC4)nn23)cc1
    i	0.93	102.4	-2.2	-18.9	57.4	0.5
CCc1nnc(NC(=O)c2cccc(S(=O)(=O)N3CCc4ccccc43)c2)s1
    i	0.92	3.0*	-1.5	40.0	100.8	-24.5
CCOC(=O)c1c(C)c(C(=O)N2CCCCCC2)c(C)n1C
    i	0.85	94.9	-1.8	/	/	-16.7
O=C(CSCc1ccccc1)NNC(=S)Nc1cccc(Cl)c1Cl
    ?	/	91.0	-0.8	36.7	101.4	3.7
CCOC(=O)c1n[nH]c2ccccc12
    /	/	103.4	0.0	-11.1	124.0	-7.1
C/C=C(\C)C(=O)Nc1cccc(C2=NOC3(C2)C[C@H](C(N)=O)N(C(=O)CC#N)C3)c1 (stereo partly specified)
    i	0.99	94.0	/	/	/	/
COc1ccc(/C=N/n2c(C)cc(C)cc2=O)cc1
    i	1.08	105.7	/	/	/	-7.1
COc1cc(/C=N/O)cc(Br)c1OC
    i	0.98	94.0	-0.7	15.2	128.3	-4.3
O=C(Cc1ccc(Cl)cc1)N/N=C/c1ccncc1
    i	1.03	108.4	/	/	/	0.1
CCn1c(=N)n(CC(=O)c2ccc(Br)s2)c2ccccc21
    i	0.84	106.7	/	/	/	/
C=CCOc1ccccc1CNc1cccc(F)c1
    i	1.03	98.9	-1.1	26.7	201.7	0.9
Cc1cc(/C=C2\NC(=O)NC2=O)c(C)n1-c1cccnc1
    i	0.88	95.4	/	/	/	/
Cc1ccc(S(=O)(=O)N(C)/N=C/c2ccc(C(=O)O)cc2)cc1
    i	0.96	98.8	/	/	/	-8.1
Cc1cc[n+](CC(=O)c2ccccc2)c2ccccc12
    i	1.05	102.9	/	-25.0	92.6	6.3
COc1ccc(/C=C2\SC(=S)N(CCCC(=O)Nc3ccc(O)cc3)C2=O)cc1
    i	0.9	96.2	/	/	/	/
O=C(Nc1c(S(=O)(=O)c2ccc(Cl)cc2)csc1Br)c1ccccc1Cl
    i	1.17	101.7	/	/	/	/
O=c1sc(N2CCN(c3ccccc3F)CC2)nc2ccsc12
    i	0.94	103.8	0.9	/	/	5.7
Cc1ccc(S(=O)(=O)N2CCOCC2)cc1C(=O)NCCCn1ccnc1
    /	/	94.0	-3.4	-9.6	114.7	-9.1
CCOC(=O)N1CCC(NC(=O)Cn2nc(Cc3ccncc3)c3ccccc3c2=O)CC1
    i	0.93	104.8	-3.3	/	/	-5.9
Fc1ccc(NC(=S)Nc2cccnc2)cc1Cl
    i	0.9	137.7	/	/	/	-10.1
Cn1c(SCc2ccccc2)nnc1C1CCCNC1 (stereo unspecified)
    i	1.03	80.7	-3.4	27.3	59.1	-3.1
COc1ccc(C2SCC(=O)N2c2nnc(C34CC5CC(CC(C5)C3)C4)s2)cc1 (stereo unspecified)
    i	1.11	146.0	-0.8	-43.2	89.9	-5.9
O=C(/C=C/c1ccc([N+](=O)[O-])cc1)NC1CC2CCC1C2 (stereo unspecified)
    i	0.92	100.5	/	/	/	4.3
CSc1oc(-c2ccccc2)nc1S(=O)(=O)c1ccc(C)cc1
    i	0.94	28.4	-1.8	-40.4	144.6	-6.9
Cc1ccc(N2C(=O)C(O)(C(F)(F)F)C3=C2CC(C)(C)CC3=O)cc1 (stereo unspecified)
    i	1.01	101.4	-1.0	-7.7	132.2	-5.8
CCC(Sc1nc2cc3c(cc2c(=O)n1Cc1ccco1)OCO3)C(=O)Nc1cccc(OC)c1 (stereo unspecified)
    i	0.76	101.2	-3.3	42.4	103.8	-6.8
O=S(=O)(/N=C(\Sc1ccc(Cl)cc1)c1ccccc1)c1ccccc1
    i	0.92	102.9	-2.5	-7.0	129.6	5.5
Cn1c(=O)n(C)c2cc([N+](=O)[O-])c(N3CCN(C(=O)c4cccc(Cl)c4)CC3)cc21
    i	0.89	105.9	-0.9	/	/	2.5
O=C(Nc1ccn(Cc2ccc(F)cc2)n1)c1ccncc1
    i	0.97	99.2	-0.6	/	/	-14.0
COc1cccc(Nc2c(F)c(F)c(F)c(F)c2C(=O)O)c1
    i	0.9	124.7	-3.4	-10.5	135.7	-8.3
CCn1nc(C)c(NS(=O)(=O)c2ccc(C)cc2)c1C
    i	1.18	106.7	-2.5	3.5	91.9	-1.5
COc1ccccc1NC(=O)c1coc(=O)c(Br)c1
    i	0.94	99.5	/	/	/	/
CCOC(=O)c1cnc(SC)nc1Sc1cc(Cl)ccc1Cl
    i	0.99	69.0	-0.8	-4.9	71.1	-7.6
CSc1ccccc1C(=O)NCC1CCCO1 (stereo unspecified)
    i	0.94	82.1	0.2	16.7	68.6	4.4
COC(=O)c1cc(OC)c(OC)cc1NC(=O)c1cccnc1
    i	1.11	103.2	-2.2	25.0	94.7	-2.5
O=C(NC1CCCCC1)C(c1ccc2ncccc2c1)N(Cc1ccc2c(c1)OCO2)C(=O)c1ccc2c(c1)OCCO2 (stereo unspecified)
    i	0.91	126.1	0.4	/	/	-11.0
CCN(CC)c1ccc(/C=N/NC(=O)c2cnccn2)cc1
    i	0.72	110.4	/	-100.0	26.2	1.2
CC1CCc2ccccc2N1C(=O)c1cccs1 (stereo unspecified)
    i	0.92	103.6	-1.5	25.0	166.7	-1.6

Arranged by the number under RGS16-Gao HTS (smallest number first): 3 of the compounds above.
SMILES | RGS16-Gao HTS
COc1ccccc1NC(=O)c1coc(=O)c(Br)c1 | 99.5
O=c1sc(N2CCN(c3ccccc3F)CC2)nc2ccsc12 | 103.8
Cc1cc(C)c2c(=O)[nH]n(C3CCOC(C)(C)C3)c2n1 (stereo unspecified) | 103.9

(continued)
Each structure is followed by: HSV augment	HSV augment primary fold	RGS16-Gao HTS	GALR2 ag	INS promoter inh	INS promoter inh cell count	PKD1 kinase inh
Cc1ccc(C)c(OCC(=O)Nc2cc(C)on2)c1
    i	0.94	99.7	-0.9	/	/	-8.0
COc1ccccc1CNC(=O)CSc1nnc2c(Cl)cc(C(F)(F)F)cn12
    i	0.94	127.8	1.6	6.5	87.8	16.5
Cc1nn(CCC#N)c(C)c1Oc1ccccc1O
    i	0.97	100.8	/	/	/	/
O=C(c1ccccc1)N1CCN(C2c3cccc4cccc(c34)C2NS(=O)(=O)c2ccccc2)CC1 (stereo unspecified)
    i	0.84	103.0	-1.1	27.9	79.2	-8.1
CC(C)c1onc(C(=O)Nc2cccnc2Cl)c1[N+](=O)[O-]
    i	1.11	101.0	/	/	/	-1.1
CCOC(=O)C1(Cc2ccc(Cl)cc2)CCN(C(=O)C2CCCO2)CC1 (stereo unspecified)
    i	0.98	95.9	/	/	/	-4.2
O=C1c2cccc3c(O)ccc(c23)C(=O)N1Cc1ccccc1
    ?	/	185.7*[activator]	-1.5	-233.3	146.9	-1.8
C/C(=N\Nc1nc(N)cc(Cl)n1)c1cccc([N+](=O)[O-])c1
    i	0.94	103.4	-0.2	/	/	-3.8
Oc1ccc(F)c2cccnc12
    i	0.93	99.4	/	/	/	-0.3
CCCCn1nnc(NC(=O)COc2cc(C)ccc2C(C)C)n1
    i	0.93	102.1	-1.6	23.1	113.6	-8.2
Cc1ccc(C(=O)NNC2=Nc3cc([N+](=O)[O-])ccc3OC2)cc1
    i	0.92	97.0	/	/	/	/
Cc1[nH]c2ccccc2c1/C=N\NC(=O)Cn1nnc(-c2ccccc2)n1
    i	0.9	107.0	5.3*	/	/	8.3
C/C(=C\c1cccs1)C(=O)c1c(C)cc(C)[nH]c1=O
    i	1	102.8	/	/	/	/
O=S(=O)(Cc1c(F)cccc1Cl)c1ncn[nH]1
    i	0.88	104.2	/	/	/	-5.6
CC(C)COC(=O)Nc1ccccc1C(=O)N1CCOCC1
    i	0.93	107.0	-1.3	13.6	63.8	1.4

Part of the list above in order of SMILES length, low to high.
Each structure is followed by: HSV augment	HSV augment primary fold	RGS16-Gao HTS	GALR2 ag	INS promoter inh	INS promoter inh cell count	PKD1 kinase inh
CC1CCc2ccccc2N1C(=O)c1cccs1 (stereo unspecified)
    i	0.92	103.6	-1.5	25.0	166.7	-1.6
CN(C)C=Nc1nc2ccccc2nc1N1CCCC1
    i	1.1	98.6	/	5.3	70.9	2.1
O=C(Cc1ccc(Cl)cc1)N/N=C/c1ccncc1
    i	1.03	108.4	/	/	/	0.1
CCCCn1nnc(NC(=O)COc2cc(C)ccc2C(C)C)n1
    i	0.93	102.1	-1.6	23.1	113.6	-8.2
Cc1cc(N2CCCCC2)n2ncc(-c3ccc(Cl)cc3)c2n1
    i	0.95	104.2	-1.1	/	/	-3.0
Cc1nn(-c2ccccc2)c(C)c1C(=O)OCC(=O)NCc1ccco1
    i	0.99	95.6	-2.4	-42.9	87.5	-4.9
O=C(/C=C/c1ccc([N+](=O)[O-])cc1)NC1CC2CCC1C2 (stereo unspecified)
    i	0.92	100.5	/	/	/	4.3
O=S(=O)(/N=C(\Sc1ccc(Cl)cc1)c1ccccc1)c1ccccc1
    i	0.92	102.9	-2.5	-7.0	129.6	5.5
COc1ccc(C2SCC(=O)N2c2nnc(C34CC5CC(CC(C5)C3)C4)s2)cc1 (stereo unspecified)
    i	1.11	146.0	-0.8	-43.2	89.9	-5.9
CCC(Sc1nc2cc3c(cc2c(=O)n1Cc1ccco1)OCO3)C(=O)Nc1cccc(OC)c1 (stereo unspecified)
    i	0.76	101.2	-3.3	42.4	103.8	-6.8

(list continues)
Each structure is followed by: HSV augment	HSV augment primary fold	RGS16-Gao HTS	GALR2 ag	INS promoter inh	INS promoter inh cell count	PKD1 kinase inh
COc1c2ccccc2c(OC)c2ccccc12
    i	1.03	100.1	/	41.2	184.6	1.2
CCOC(=O)C1CCN(C(=O)CN(Cc2ccc(Cl)cc2)S(C)(=O)=O)CC1
    i	0.96	90.7	-2.6	-90.0	88.6	3.5
O=C(O)[C@H]1Cc2ccccc2CN1S(=O)(=O)c1ccc(F)cc1
    i	1.02	29.8	/	/	/	/
O=C(Cn1ncc2c3ccccc3n(Cc3ccc(F)cc3)c2c1=O)N1CCN(c2ncccn2)CC1
    i	0.93	106.0	-0.4	-36.7	85.1	-7.3
COc1ccccc1-n1c(SCC(=O)c2ccc(O)cc2O)nc2cc([N+](=O)[O-])ccc21
    i	0.99	107.0	-0.8	55.2	78.8	2.1
FC(F)(F)c1cnc(N2CCSCC2)c(Cl)c1
    i	1	115.8	/	/	/	/
CCOC(=O)c1c(C)[nH]c(C)c1C(=O)COC(=O)/C=C/c1cccc(F)c1
    i	1.17	91.7	-0.4	/	/	-6.1
Cc1cc(C)cc(C(=O)NC(CC(N)=O)c2ccc(NC3CCCCCC3)c([N+](=O)[O-])c2)c1 (stereo unspecified)
    i	0.97	96.9	/	/	/	/
COc1cc(C(=O)Nc2ccc(S(=O)(=O)Nc3ncccn3)cc2)c([N+](=O)[O-])cc1OC
    i	0.98	107.7	/	/	/	-5.6
COc1ccccc1OCC(=O)Nc1ccc(S(=O)(=O)NC(C)=O)cc1
    i	1.13	96.8	0.4	/	/	-7.8
CCOC(=O)NC1(C(F)(F)F)C(=O)NC(C)=C1C(=O)OC (stereo unspecified)
    i	0.92	106.7	-0.2	16.2	99.5	-3.3
OCC1(Cc2ccc(Cl)cc2)CCN(CCCc2ccccc2)CC1
    i	0.91	110.9	/	-34.8	80.3	-1.8
CCOC(=O)C1CCCN(C(=O)c2ccc(CS(=O)(=O)Cc3ccccc3C)o2)C1 (stereo unspecified)
    /	/	97.6	-2.4	-71.4	77.4	-2.8
O=c1nc(NC2CCCC2)ccn1Cc1cccc(Br)c1
    i	1.05	100.3	-0.3	-172.4	71.2	-5.0
OC1CCN(c2c3c(nc4cc(-c5ccc(F)cc5)nn24)CCC3)CC1
    i	0.74	103.7	-0.1	-20.5	132.5	-2.8
CNc1nc(Cl)c(SC)c(N2CCOCC2)n1
    i	0.89	107.6	/	22.2	127.9	1.1
